# Screening data: PubChem BioAssay, Broad Institute
# Vaccinia inh – blocks a specific stage of Vaccinia orthopoxvirus infection; 0.01% of 89,000 active; activity change (mCherry), % (concentration not given with the values); Vaccinia-infected cells, mCherry/Venus stage reporter fluorescence; stronger effect = lower value; some inactives read as strong as hits; AID 1053133;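 active = mCherry past -33% and 40 or more points under the early reporter, replicates agreeing; inconclusive = past -33% without that gap or agreement; tested in A549 cells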;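 note: scaled between vehicle wells and reference inhibitor wells; 23 nL library stock went into each well; one replicate is shown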
# Vaccinia inh Venus – also measured in Vaccinia inh; calls as there; activity change (Venus), %; measured here: Venus reporter, other viral stage;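 negative = less Venus signal; first of two replicates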
# An asterisk follows results filed as active; ? = inconclusive; / = not tested or not shown; & = joins results of further samples. Not all compounds are listed. The share of hits here may be higher or lower than overall.
molecule | Vaccinia inh | Vaccinia inh Venus
C[C@H]1CN([C@@H](C)CO)C(=O)CCCn2nncc2CO[C@H]1CN(C)C(=O)Nc1cccc(F)c1 | 7 | 6
COCC(=O)Nc1ccc2c(c1)OC[C@@H](C)N(CC1CCCCC1)C[C@H](C)[C@H](OC)CN(C)C2=O | -18 | -9
Cc1cc(C)cc(N2C(=O)CS(=O)(=O)C2c2cccc([N+](=O)[O-])c2)c1 (stereo not drawn) | 12 | 4
O=C(C[C@H]1C=C[C@@H](NC(=O)Cc2cccnc2)[C@H](CO)O1)NCc1ccc2c(c1)OCO2 | 1 | 7
COCC(=O)Nc1ccc2c(c1)OC[C@@H](C)N(CCC(F)(F)F)C[C@@H](C)[C@H](OC)CN(C)C2=O | 11 | 10
COc1ccc(NC(=O)N2CC(=O)N3[C@H](CO)[C@@H](c4ccc(C#CCC5CCCC5)cc4)[C@H]3C2)cc1 | ? | /
COCC#Cc1cnc2c(c1)C(=O)N([C@@H](C)CO)C[C@H](C)[C@@H](CN(C)C(=O)Nc1ccccc1F)O2 | 3 | -2
COc1ccc2c3c([nH]c2c1)[C@H](CO)N(C(=O)NC(C)C)CC31CCN(C(=O)c2cccnc2)CC1 | 20 | 8
C[C@H]1CN([C@@H](C)CO)C(=O)c2cc(NS(=O)(=O)c3cccs3)ccc2O[C@H]1CN(C)C(=O)Nc1ccc(F)cc1 | 28 | 15
CCN(C[C@H]1N[C@H](CO)[C@H]1c1ccc(-c2ccccc2)cc1)C(=O)COC | -8 | -8
COc1ccc(-c2ccc([C@H]3[C@@H](C#N)N(C(=O)c4cccnc4)[C@@H]3CO)cc2)cc1 | -29 | -32
O=C(C[C@@H]1C[C@H]2c3cc(NC(=O)NC4CCCC4)ccc3O[C@H]2[C@@H](CO)O1)NCc1cccc(F)c1 | 6 | 6
COc1ccc(CN(C)C[C@H]2Oc3ccc(NC(=O)Nc4ccc(F)cc4)cc3CC(=O)N([C@@H](C)CO)C[C@H]2C)cc1 | -21 | -20
O=C(c1cccc(F)c1)N1C[C@@H]2[C@H](c3ccccc31)[C@@H](CO)N2C(=O)C1CCCC1 | 7 | 10
COc1ccccc1NC(=O)N(C)C[C@@H]1OCc2ccccc2-c2c(n(C)c3ccccc23)C(=O)N([C@H](C)CO)C[C@H]1C | -12 | -6
Cc1ccc(S(=O)(=O)N(C)C[C@@H]2Oc3ccc(NC(=O)Nc4ccc5c(c4)OCO5)cc3CC(=O)N([C@H](C)CO)C[C@H]2C)cc1 | 11 | 10
Cc1ccc(S(=O)(=O)N(C)C[C@H]2Oc3ccc(NC(=O)C4CCCCC4)cc3C(=O)N([C@@H](C)CO)C[C@@H]2C)cc1 | -15 | -2
COc1ccc(CN(C)C[C@@H]2Oc3ccc(NC(=O)Cn4cnnn4)cc3C(=O)N([C@H](C)CO)C[C@@H]2C)cc1 | 20 | 15
C[C@@H]1CN([C@@H](C)CO)C(=O)c2cccc(NC(=O)c3ccc(-c4nccs4)cc3)c2O[C@@H]1CN(C)S(=O)(=O)c1ccc(Cl)cc1 | -28 | -24
CCCNC(=O)C[C@H]1CC[C@@H]2[C@H](COC[C@@H](O)CN2C(=O)Nc2ccc(Cl)c(Cl)c2)O1 | -12 | -18
COc1ccc(CN2CC3(CN(C(=O)Cc4ccncc4)C3)c3c([nH]c4cc(OC)ccc34)[C@H]2CO)cc1 | 19 | 18
C(=C\c1ccc(C2[C@@H]3CN(Cc4cccnc4)C[C@H]2N3)cc1)/c1ccccc1 (stereo partly drawn) | ? | /
C[C@@H]1CN([C@H](C)CO)C(=O)c2ccccc2-c2ccccc2CO[C@@H]1CN(C)S(=O)(=O)c1ccc(C#N)cc1 | 21 | 16
C[C@H]1CN([C@@H](C)CO)C(=O)CCCn2nncc2CO[C@H]1CN(C)S(=O)(=O)c1ccc(Oc2ccccc2)nc1 | -6 | -1

# Shown as labelled records: 3 of the compounds above
Compound: COc1ccc(CN(C)C[C@@H]2Oc3ccc(NC(=O)Cn4cnnn4)cc3C(=O)N([C@H](C)CO)C[C@@H]2C)cc1
  Vaccinia inh: 20; Vaccinia inh Venus: 15
Compound: C[C@@H]1CN([C@@H](C)CO)C(=O)c2cccc(NC(=O)c3ccc(-c4nccs4)cc3)c2O[C@@H]1CN(C)S(=O)(=O)c1ccc(Cl)cc1
  Vaccinia inh: -28; Vaccinia inh Venus: -24
Compound: CCCNC(=O)C[C@H]1CC[C@@H]2[C@H](COC[C@@H](O)CN2C(=O)Nc2ccc(Cl)c(Cl)c2)O1
  Vaccinia inh: -12; Vaccinia inh Venus: -18

# Next part
molecule | Vaccinia inh | Vaccinia inh Venus
CO[C@@H]1CN(C)C(=O)c2cc(NS(C)(=O)=O)ccc2OC[C@H](C)N(Cc2ccccc2)C[C@@H]1C | 3 | -3
COCC(=O)N(C)C[C@H]1Oc2ncc(C#CC3(O)CCCC3)cc2C(=O)N([C@@H](C)CO)C[C@@H]1C | 12 | 10
O=C(Nc1ccccc1F)N[C@H]1CC[C@H](CCNC(=O)C2CCCC2)O[C@H]1CO | -11 | 6
C[C@H](CO)N1C[C@H](C)[C@H](CN(C)S(=O)(=O)c2ccc(Cl)cc2)OCCCC[C@H](C)Oc2ccc(NC(=O)c3ccncc3)cc2C1=O | -22 | -23
O=C(N[C@H]1CC[C@@H](CCNS(=O)(=O)Cc2ccccc2)O[C@@H]1CO)c1ccc2c(c1)OCO2 | -18 | -16
COc1ccc(NC(=O)Nc2cccc3c2O[C@@H](CN(C)C(=O)Nc2ccc(OC)cc2)[C@H](C)CN([C@H](C)CO)C3=O)cc1 | 30 | 29
O=C(C[C@@H]1C[C@H]2c3cc(NC(=O)Cc4ccncc4)ccc3O[C@H]2[C@@H](CO)O1)NCCN1CCCCC1 | -3 | 2
CS(=O)(=O)N1[C@@H]2c3ccc(-c4ccc(F)cc4)c(=O)n3C[C@@H]2[C@@H](CO)[C@@H]1C(=O)O | 18 | 11

# Continuation.
# The line under a structure holds: Vaccinia inh	Vaccinia inh Venus
O=C(C[C@H]1CC[C@H](NC(=O)C2CCC2)[C@H](CO)O1)NCC1CC1
    1	0
C[C@H]1CN([C@@H](C)CO)C(=O)c2cc(C3=CCCCC3)cnc2O[C@@H]1CN(C)C(=O)Cc1ccccc1
    ?	-18
COc1ccc(CN(C)C[C@H]2OCCCC[C@H](C)Oc3ccc(NS(C)(=O)=O)cc3C(=O)N([C@@H](C)CO)C[C@@H]2C)cc1
    3	6
COC(=O)C[C@@H]1C[C@@H]2c3cc(NC(=O)Nc4ccccc4F)ccc3O[C@@H]2[C@H](CO)O1
    0	1
CCC(=O)N(C)C[C@H]1Oc2cc(-c3ccccc3F)ccc2S(=O)(=O)N([C@@H](C)CO)C[C@@H]1C
    -17	-10
C[C@H](O)C#Cc1cnc2c(c1)C(=O)N([C@@H](C)CO)C[C@@H](C)[C@@H](CN(C)Cc1cccc(C(=O)O)c1)O2
    6	3
C[C@@H]1CN([C@H](C)CO)C(=O)c2cc(/C=C/c3ccccc3)cnc2O[C@@H]1CN(C)Cc1ccccc1F
    ?	/
N#C[C@H]1N[C@H](CO)[C@H]1c1ccc(-c2ccccc2F)cc1
    -13	-13
CO[C@H]1CN(C)C(=O)c2cccc(C#N)c2OC[C@H]2O[C@@H](CC[C@@H]2OC)CCN(C)C(=O)[C@H]1C
    2	0
CN(C)CC(=O)Nc1ccc2c(c1)[C@@H]1C[C@@H](CC(=O)NCC3CC3)O[C@H](CO)[C@@H]1O2
    26	22
O=C(Cc1ccccn1)N[C@H]1CC[C@@H](CC(=O)N2CCCCC2)O[C@H]1CO
    10	24
O=C(C[C@H]1CC[C@@H]2[C@H](COC[C@H](O)CN2Cc2cc(F)ccc2F)O1)N[C@H]1CCN(Cc2ccccc2)C1
    ?	/
Cc1cccc(S(=O)(=O)N[C@@H]2CC[C@@H](CCNC(=O)c3cnccn3)O[C@@H]2CO)c1
    -6	8
CC(C)NC(=O)Nc1ccc2c(c1)C(=O)N([C@H](C)CO)C[C@H](C)[C@H](CN(C)C(=O)NC(C)C)O2
    7	5
O=C(C[C@H]1CC[C@@H](NC(=O)CC2CC2)[C@H](CO)O1)NCc1ccc(-c2ccccc2)cc1
    -10	-12
COc1ccc2c3c(n(C)c2c1)[C@@H](CO)N(Cc1cc(F)ccc1F)CC31CN(C(C)=O)C1
    21	19
COc1cccc(S(=O)(=O)N[C@H]2CC[C@H](CCNC(=O)Cc3ccncc3)O[C@H]2CO)c1
    15	17
CCCNC(=O)N1CC(=O)N2[C@H](CO)[C@@H](c3ccc(C#CCC4CCCC4)cc3)[C@@H]2C1
    ?	/
CO[C@H](CN(C)Cc1cc(F)ccc1F)[C@H](C)CN([C@H](C)CO)S(=O)(=O)c1ccc(F)cc1
    -4	-7
C[C@H](CO)N1C[C@H](C)[C@H](CN(C)C(=O)Nc2ccc3c(c2)OCO3)Oc2ccc(NC(=O)Nc3cccc4ccccc34)cc2C1=O
    11	16

# Exported field by field: entries from further up
O=C(C[C@H]1CC[C@H](NC(=O)C2CCC2)[C@H](CO)O1)NCC1CC1
  Vaccinia inh = 1
  Vaccinia inh Venus = 0

CO[C@H]1CN(C)C(=O)c2cccc(C#N)c2OC[C@H]2O[C@@H](CC[C@@H]2OC)CCN(C)C(=O)[C@H]1C
  Vaccinia inh = 2
  Vaccinia inh Venus = 0

# Going on with the list.
# The line under a structure holds: Vaccinia inh	Vaccinia inh Venus
CC(=O)N[C@H]1C[C@@H]2O[C@H](CO)CC[C@@H]2O[C@@H]1CCc1ccc(C#CC2(O)CCCC2)cc1
    0	5
COc1cccc(C#Cc2cnc3c(c2)C(=O)N([C@@H](C)CO)C[C@@H](C)[C@H](CN(C)C(=O)C2CCOCC2)O3)c1
    -6	-6
C[C@H](CO)N1C[C@H](C)[C@H](CN(C)C)Oc2c(NC(=O)c3ccc(-c4nccs4)cc3)cccc2C1=O
    21	12
O=C(C[C@H]1C[C@@H]2c3cc(NC(=O)C4CCOCC4)ccc3O[C@@H]2[C@H](CO)O1)NCc1ccc(Oc2ccccc2)cc1
    -6	2
C=CCN1Cc2ccccc2C[C@@]2(COC(c3ccc(OCCCO)cc3)=N2)C1=O
    -24	-13
C[C@H]1CN([C@@H](C)CO)C(=O)c2c(c3ccccc3n2C)-c2ccccc2CO[C@@H]1CN(C)C(=O)Nc1cccc(F)c1
    -15	-10
COc1ccc(OC(=O)N(C)C[C@@H]2OCc3cnnn3CCCC(=O)N([C@@H](C)CO)C[C@@H]2C)cc1
    8&15	3&11
Cc1ccccc1-c1cnc2c(c1)C(=O)N([C@@H](C)CO)C[C@@H](C)[C@H](CN(C)C(=O)c1ccncc1)O2
    -3	7
COc1ccc(S(=O)(=O)Nc2cccc3c2O[C@@H](CN(C)CC2CC2)[C@H](C)CN([C@@H](C)CO)C3=O)cc1
    9	12
C[C@@H]1CN([C@H](C)CO)C(=O)c2cc(NS(C)(=O)=O)ccc2O[C@@H](C)CCCCO[C@@H]1CN(C)Cc1ccc(C(=O)O)cc1
    19	22
C[C@@H]1CN([C@H](C)CO)C(=O)Cc2cc(NC(=O)CCN3CCOCC3)ccc2O[C@H]1CN(C)C(=O)Nc1ccc2c(c1)OCO2
    9	11
CN1c2ccc(C#Cc3cccnc3)cc2[C@H]2[C@H](CCN2S(=O)(=O)c2ccccc2F)[C@@H]1CO
    -13	-4
N#C[C@H]1[C@@H](c2ccccc2-c2ccccc2)[C@@H](CO)N1C(=O)Cc1ccccc1
    1	0
COc1cccc(-c2ccc3c(c2)O[C@@H](CN(C)C(=O)C2CC2)[C@H](C)CN([C@H](C)CO)S3(=O)=O)c1
    4	-3
Cc1cccc(S(=O)(=O)N(C)C[C@H]2OCc3cnnn3CCCC(=O)N([C@@H](C)CO)C[C@@H]2C)c1
    8	6
C[C@H]1CN([C@@H](C)CO)S(=O)(=O)c2ccc(C#Cc3ccccc3F)cc2O[C@H]1CN(C)CC1CCOCC1
    ?	/
COCC(=O)Nc1ccc2c(c1)[C@H]1C[C@@H](CC(=O)NCCc3ccccc3)O[C@@H](CO)[C@H]1O2
    10	6
C[C@@H]1CN([C@@H](C)CO)C(=O)Cc2cc(NC(=O)Nc3ccc(F)cc3)ccc2O[C@H]1CN(C)Cc1ccc(Oc2ccccc2)cc1
    -17	-6
C[C@H]1CN([C@@H](C)CO)C(=O)c2cc(NC(=O)C3CCCCC3)ccc2O[C@@H]1CN(C)Cc1ccc(-c2ccccc2)cc1
    -19	-14
C[C@H](CO)N1C[C@H](C)[C@H](CN(C)S(=O)(=O)c2cccs2)OCc2ccccc2-c2ccccc2C1=O
    -5	1
CCS(=O)(=O)Nc1ccc2c(c1)C(=O)N(C)C[C@H](OC)[C@H](C)CN[C@H](C)CO2
    11	11
C[C@H]1CN([C@@H](C)CO)C(=O)c2cccc(NS(=O)(=O)c3cn(C)cn3)c2O[C@@H]1CN(C)Cc1ccc(-c2ccccc2)cc1
    11	1
CC(C)CC#Cc1ccc([C@@H]2[C@@H](CO)N3CCCCN(C(=O)Cc4ccccn4)C[C@@H]23)cc1
    -33	-25
O=C(c1cnccn1)N1CC(=O)N2[C@@H](CO)[C@@H](c3ccc(C#CCc4ccccc4)cc3)[C@@H]2C1
    2	0
Cc1ccc(S(=O)(=O)Nc2ccc3c(c2)C(=O)N([C@H](C)CO)C[C@@H](C)[C@@H](CN(C)S(=O)(=O)c2ccccc2)OCCCC[C@H](C)O3)cc1
    -5	9
Cc1noc(C)c1NC(=O)Nc1ccc2c(c1)CC(=O)N([C@H](C)CO)C[C@@H](C)[C@H](CN(C)Cc1ccc(Cl)c(Cl)c1)O2
    19	9
C[C@@H]1CN([C@H](C)CO)S(=O)(=O)c2ccc(-c3ccc(C(=O)N(C)C)cc3)cc2O[C@@H]1CN(C)C(=O)Cc1ccccn1
    6	1
O=C(C[C@H]1C=C[C@@H](NC(=O)NC2CCCCC2)[C@H](CO)O1)NCc1ccccc1
    5	6
C[C@@H]1CN([C@H](C)CO)C(=O)c2cccc(NC(=O)C3CC3)c2O[C@@H]1CN(C)Cc1ccccc1
    21	20
